RE007 growth inh: less growth of the S. pombe RE007 Vpr strain; S. pombe RE007 Vpr strain, BacTiter-Glo ATP luminescence, 24 h; control for the full effect not named in the record; Potency, µM (doses to about 92.2 µM), inactives show at the highest dose activity change, negative = less growth; 360,000 tested, 0.21% active; AID 651644; active = well fitted falling curve with a large enough effect; inconclusive = small, poorly fitted or top-dose-only effect; inactive = no such curve, though single readings can be large or run the other way;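 note: % is set by controls: 0 for no effect and ±100 for the full control effect; nearly all actives have a fitted effect of over 50% in size; the assay follows cell death caused by Vpr and the record does not say whether a fall means rescue or toxicity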
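Fission yeast strain RE007, carrying one chromosomally integrated HIV-1 vpr copy, was seeded at OD 0.01 in PMG+AL medium with 23 nL pinned compound. After 24 h at 30 °C and 99% humidity, viability was read by BacTiter-Glo luminescence.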
SARS PLpro yeast: SARS-CoV PLP inhibition in yeast; Potency, µM (top dose mostly 32.9 µM), inactives show at the highest dose activity, positive = growth rescue; S. cerevisiae expressing SARS-CoV PLpro, growth rescue; control for the full effect not named in the record; 330,000 tested, 0.19% active; active means well fitted rising curve with a large enough effect; inconclusive means small, poorly fitted or top-dose-only effect; inactive means no such curve, though single readings can be large or run the other way; note: 0% is about no effect; nearly all actives have a fitted effect of over 55% in size; growth read by luminescence after 48 h
2A StopGo: lowers the luciferase signal of an FMDV 2A StopGo reporter; human cells with a luciferase reporter of 2A StopGo recoding; control for the full effect not named in the record; Potency, µM (series often up to 57.9 µM), without a hit: at the top dose signal change, negative = less light; 410,000 tested, 1.2% active; active = well fitted falling curve with a large enough effect; inconclusive = small, poorly fitted or top-dose-only effect; inactive = no such curve, though single readings can be large or run the other way; tested in HEK293T cells; note: % is set by controls: 0 for no effect and ±100 for the full control effect; nearly all actives have a fitted effect of over 45% in size; luciferase light after 4 h
An asterisk follows results filed as active; ? = inconclusive; & = joins results of further samples; [ ] = dose if it differs, or a comment. Potency is the fitted concentration of half-maximal effect. Only part of the results is shown; the hit share may differ from the screen's.

The line under a structure holds: 2A StopGo | RE007 growth inh | SARS PLpro yeast
CC1=CC=CN2C1=NC(=O)CC2(C)C(=O)N(CC(=O)NC1CCCC1)c1ccccc1C (stereo not drawn)
    -21% | 13% | -1%
COC(=O)C1(CC2CC(c3ccncc3)=NO2)CCN(C(=O)OC(C)(C)C)CC1 (stereo not drawn)
    ? | 9% | -2%
COc1ccccc1-c1sc2cc3c(cc2c1-c1ccc2c(c1)OCO2)OCO3
    25% | -13% | 0%
CC(C)NC(=O)N(C)C[C@H]1Oc2ccc(NS(=O)(=O)c3cn(C)cn3)cc2C(=O)N([C@H](C)CO)C[C@@H]1C
    -12% | 8% | 3%
Cc1csc(NC(=O)C2CC(=O)N(c3ccc4c(c3)OCCO4)C2)n1 (stereo not drawn)
    4% | 10% | 0%
Cc1ccc(SCC(=O)OCC(=O)NCCc2ccccc2)cc1C
    6% | -4% | 14%
CCCCN1C(=O)c2ccc(C(=O)NC3(C)CCS(=O)(=O)C3)cc2C1=O (stereo not drawn)
    -10% | 6% | 1%
CCCCCCSc1ccc(-c2nc3cc(C)ccn3c2NC2CCCCC2)cc1
    ? | -8%&-21% | -1%
C(=N\Nc1ncnc2nc[nH]c12)/c1cccs1
    99%[activator] | 14% | -1%
CCOC(=O)c1csc(NC(=O)c2cc(-c3ccccn3)nc3ccccc23)n1
    -15% | 10% | 7%
CN(CC(=O)Nc1ccc(Cl)c(C(F)(F)F)c1)C(=O)CNC(=O)C1CCCCC1
    ? | -2% | 1%
CCCc1cc(=O)[nH]c(SCC(=O)Nc2ccc3ccccc3c2)n1
    -4% | -18% | 5%
O=C(CNC(=O)COc1ccccc1)NCCN1CCOCC1
    -20% | 6% | 1%[6.58 µM]
CCOc1[nH]n(-c2ccccc2)c(=O)c1C=Nc1ccc(C(=O)OC)cc1
    6% | 0% | -1%
CC(C(=O)OCC(=O)NC1CCCCC1)N1C(=O)c2ccccc2C1=O (stereo not drawn)
    -9% | 29% | 4%
CC(=O)NCCNC(=O)c1ccc(Sc2ccccc2)c([N+](=O)[O-])c1
    24% | 11% | 2%
O=c1nc2n(c3cccc(Cl)c13)CCCCC2
    6% | -8% | 2%
O=C(CN1CCCC1c1cccs1)Nc1cccc(S(=O)(=O)N2CCCC2)c1 (stereo not drawn)
    -25% | 0% | 2%[6.58 µM]
CC(=O)[C@H]1CC[C@H]2[C@@H]3CC=C4C[C@@H](O)CC[C@]4(C)[C@H]3CC[C@]12C
    ? | -12% | -4%
COc1ccc(/C=C2\CC/C(=C\c3ccc(OC)cc3OC)C2=O)c(OC)c1
    25% | 1% | -4%
C=CC[C@@H](CC(=O)NCCO)C(=O)N[C@H](COC(=O)[C@@H](CC=C)Cc1ccc(F)cc1)Cc1c[nH]c2ccccc12
    ? | 6% | -2%
CCOc1ccccc1OCC(=O)OCC(=O)c1c(N)n(CC(C)C)c(=O)n(C)c1=O
    ? | 3% | -3%
O=C(Nc1ccc(C(F)(F)F)cc1)c1ccccc1-n1cnnn1
    13% | 13% | -5%
CN(CC(=O)Nc1ccccc1Cl)C(=O)C1CCN(C(=O)c2ccc(F)cc2)CC1
    0% | 11% | 2%
O=C(CN1C(=O)NC2(CCCC2)C1=O)NCc1ccccc1
    -3% | 8% | 1%
COc1ccc(Cl)cc1C(=O)NNC(=O)c1cc2ccccc2o1
    22% | -14% | -4%
O=C(CNC(=O)c1ccccc1)OCC(=O)c1ccc(Cl)s1
    -13% | 11% | 2%
O=C(OCC(=O)N1CCOCC1)c1ccccc1OCc1ccccc1
    5% | 3% | -2%
O=C(COC(=O)c1ccc([N+](=O)[O-])o1)NCc1ccc2c(c1)OCO2
    -4% | 11% | -11%
COc1ccc(CNCC(=O)Nc2ccccc2-n2cccc2)cc1
    -20% | 3% | 2%
Cc1cc(C(=O)OCC(=O)N2CCC(C)CC2)c2ccccc2n1
    -24% | -6% | 2%
O=C(NC1CCCC1)C(c1ccncc1)N(CCCN1CCOCC1)C(=O)c1ccc(-c2ccccc2)[nH]1 (stereo not drawn)
    1% | -7% | -3%
O=C(Cn1cnc2ccccc21)Nc1ccc(F)c(F)c1
    -21% | -3% | 4%
Cc1ccccc1-n1nnnc1SCc1cc(=O)n2ccsc2n1
    -21% | 13% | 6%
CC(C)=CCC/C(C)=C/CNC(=O)C[C@H]1C[C@H](C(=O)N2CCOCC2)[C@@]2(CCC3CCCC3)c3[nH]c4cc(CCC(=O)N(C)C)ccc4c3CCN2C1=O
    ? | 4% | -5%
COc1cc(/C=N/NC(=O)c2cc(-c3c(C)nn(-c4ccccc4)c3C)n[nH]2)ccc1O
    ? | -14% | 1%
Cc1c(C(=O)N2CCN(S(=O)(=O)c3ccccc3F)CC2)oc2c(Cl)cccc12
    ? | 11% | -5%
COc1ccc(C(CNC(=O)COc2cccc(C(F)(F)F)c2)N2CCCC2)cc1 (stereo not drawn)
    -9% | -14% | 3%
CCOC(=O)C1C(=O)N(O)CC1c1cccc(Oc2ccccc2)c1 (stereo not drawn)
    -9% | 13% | 3%
CSc1ncccc1C(=O)OCC(=O)N1CC(=O)Nc2ccccc21
    1% | 5% | -4%
COc1ccc(C=O)cc1Cn1cnc2c(cnn2C)c1=O
    -9% | 13% | -2%
C=CCNc1nc(C(=O)OCC(=O)Nc2ccccc2C(F)(F)F)cs1
    -6% | 0% | 2%
COc1ccc(S(=O)(=O)N(C)C[C@H]2Oc3ccc(NC(=O)C4CCCCC4)cc3C(=O)N([C@H](C)CO)C[C@@H]2C)cc1
    -8% | -5% | 6%
CN(C)C(=O)CCc1ccc2c3c([nH]c2c1)[C@]1(CCc2ccccc2)[C@@H](C(=O)N2CCCCC2)C[C@H](CC(=O)NCc2ccco2)C(=O)N1CC3
    42%[activator] | -2% | 14%
CN(Cc1ccccc1)C(=O)c1cccc(NC(=O)Cc2ccc([N+](=O)[O-])cc2)c1
    ? | 1% | 0%
COc1ccccc1/C=C/C(=O)OCC(=O)N1CCc2ccccc21
    16% | -14% | 1%
Cc1ccc(S(=O)(=O)N2[C@@H](c3ccc(C(C)(C)C)cc3)C(C(=O)O)=CC[C@H]2c2cccs2)cc1
    0% | 6% | 0%
O=C(CN1C(=O)NC2(CCCCCC2)C1=O)NCc1ccccc1Cl
    -10% | -7% | 1%
COC(=O)c1c(C)[nH]c(C(=O)C(C)OC(=O)c2ccco2)c1C (stereo not drawn)
    -13% | -15% | -2%
FC(F)(F)c1cnc(NNC(=S)Nc2cccnc2)c(Cl)c1
    -22% | 3% | -1%
CCC(=O)Nc1cc(C(=O)O)ccc1Sc1ccc(C)cc1
    -12% | 3% | 2%
CC(=O)C[C@H](O)CC(=O)[C@H]1OC(=O)CC/C=C\Cc2ccccc21
    -6% | 4% | 2%
CC(=O)N1CCN(C(=O)c2ccc(NS(=O)(=O)c3ccc4c(c3)OCCO4)cc2)CC1
    6% | 11% | 1%
COc1cc2c(-c3ccc4c(c3)OCO4)c(-c3ccsc3)oc(=O)c2cc1OC
    6% | 7% | -1%
Cc1c(Br)c([N+](=O)[O-])nn1CC(=O)NCc1ccccc1
    -12% | -1% | 1%
CC1(C)CC2C1CCC1(O)CC2(C)CCC1N(O)c1ccc(C(=O)NCCO)cn1 (stereo not drawn)
    ? | -14% | -10%
CC(=O)N1CCOc2ccc(S(=O)(=O)NC[C@H]3O[C@@H](n4cnc5c(N)ncnc54)[C@H](O)[C@@H]3O)cc21
    -17% | -6% | 9%
COc1ccc(NC(=O)N(C)C[C@H]2Oc3c(NC(=O)Nc4ccccc4)cccc3C(=O)N([C@H](C)CO)C[C@@H]2C)cc1
    -2% | 1% | -9%
Cc1cc([N+](=O)[O-])c(C)cc1-c1ccc(/C=N/NC(=O)c2cccnc2)o1
    -22% | 4% | -1%
O=C1C=CN2CCCCC2CC1 (stereo not drawn)
    -27% | -13% | -1%

Compound profiles, as listed above:
Entry for CCC(=O)Nc1cc(C(=O)O)ccc1Sc1ccc(C)cc1 = 2A StopGo = -12%; RE007 growth inh = 3%; SARS PLpro yeast = 2%
Entry for Cc1ccc(S(=O)(=O)N2[C@@H](c3ccc(C(C)(C)C)cc3)C(C(=O)O)=CC[C@H]2c2cccs2)cc1 = 2A StopGo = 0%; RE007 growth inh = 6%; SARS PLpro yeast = 0%

The results go on.
The line under a structure holds: 2A StopGo | RE007 growth inh | SARS PLpro yeast
Cc1ccc(C(=O)NC(CCc2ccccc2)C(=O)O)cc1 (stereo not drawn)
    -4% | 9% | 2%
Cc1ccc(C(=O)NNC(=O)c2ccc(NS(=O)(=O)c3cccs3)cc2)o1
    8% | 5% | -9%
OCC[C@H]1C[C@H](O)[C@@H](O)[C@]2(OCc3ccccc32)O1
    -12% | -1% | 0%
Cc1cccc(NC(=S)N(Cc2cccc(Br)c2)CC2CCC(C(=O)O)CC2)c1 (stereo not drawn)
    -7% | -3% | 0%
CCOC(=O)C1CCN(CC(O)COCc2ccc3c(c2)OCO3)CC1 (stereo not drawn)
    -4% | 19% | 4%
O=C(NN1CCOCC1)c1c(-c2ccccc2)sc2ccccc12
    6% | 20% | -11%
Oc1ccc(C[C@H]2CNCCN2CCc2cccc3ccccc23)cc1
    -12% | 0% | 4%
NNC(=O)c1cc(S(=O)(=O)N2CCOCC2)c[nH]1
    -23% | -3% | 0%
Cc1ccc(S(=O)(=O)N2CCN(CC(=O)Nc3ccccc3Cl)CC2)cc1
    -10% | -16% | -10%
Cc1cc(C)nc(NNS(=O)(=O)c2ccc(F)c(Cl)c2)n1
    -8% | 3% | -11%
CCc1ccccc1NC(=O)CN(C)C(=O)c1cc(C2CC2)nn1-c1ccccc1
    -21% | 9% | 6%
O=C(NCCc1nnc2ccc(NCc3cccnc3)nn12)c1ccccc1F
    -7% | -5% | 5%
OC(COc1ccccc1)CN(Cc1ccccc1)CC(O)COc1ccccc1 (stereo not drawn)
    0% | -19% | 3%
COC(=O)c1sccc1NC(=O)NC1CCCCC1
    81%[activator] | -12% | -6%
Cc1ccc(C(=O)NCCc2ccccc2)cc1S(=O)(=O)N1CCOCC1
    39%[activator] | -4% | 1%
COc1ccc(-c2ccc3c(c2)S(=O)(=O)c2cccc(C(=O)NC4CC4)c2C3=O)cc1OC
    -3% | -1% | -4%
COc1ccc(-n2ccnc2SCC(=O)NC2CCCC2)cc1
    -16% | 20% | -4%
OC(CCc1ccncc1)COc1ccccc1 (stereo not drawn)
    0% | -12% | -3%
CCC(CO)Oc1cc(NCc2cccc(Cl)c2)c2ncn(C(C)C)c2c1 (stereo not drawn)
    -7% | -6% | 3%
C=CC[C@@H](CC(=O)NCCO)C(=O)N[C@@H](C)COC(=O)[C@@H](CC=C)Cc1ccc(F)cc1
    -8% | 7% | 4%
CC1=C(C(=O)O)N2C(=O)C(NC(=O)c3nn(C)c(C)c3Cl)C2SC1 (stereo not drawn)
    9% | 16% | 1%
CN(C)S(=O)(=O)Oc1ccc(C(=O)Nc2cccc(C(F)(F)F)c2)cc1
    14µM* | -6% | 3%
COc1cc(F)cc(-c2ccc3c(c2)c(-c2cccs2)c(-c2cc(OC)cc(OC)c2)n3C)c1
    -22% | -6% | 1%
COc1ccccc1CC(=O)c1ccc(OCc2ccccc2)cc1
    28% | -4% | 4%
O=C1N[C@H](Cc2c[nH]c3ccccc23)COC(=O)[C@H](Cc2ccc(F)cc2)C/C=C\C[C@H]1CC(=O)N(CCO)Cc1ccccc1
    -27% | 3% | -7%
COc1cccc(-c2sc3ccc(OC)cc3c2C#CC(C)(C)O)c1
    -33% | -11% | 2%
O=C1C=CN(Cc2ccccc2)C(c2ccccc2)C1 (stereo not drawn)
    -16% | 7% | -1%
COCCN(C(=S)Nc1cc(C)cc(C)c1)C(C)c1ccco1 (stereo not drawn)
    5% | -2% | 7%
Cc1ccccc1NC(=O)C(C)OC(=O)C1CC(=O)N(Cc2ccco2)C1 (stereo not drawn)
    -2% | -9% | 7%
CCCCN(C(=O)C(CCSC)N1C(=O)c2ccccc2C1=O)c1c(N)n(CCC)c(=O)[nH]c1=O (stereo not drawn)
    -10% | -14% | -2%
Cc1noc(C)c1NC(=O)N(C)C[C@H]1Oc2ccc(NC(=O)C3CCCCC3)cc2C(=O)N([C@H](C)CO)C[C@@H]1C
    -14% | -6% | -1%
O=C(CCNS(=O)(=O)c1ccccc1C(F)(F)F)NCCCc1ccccc1
    -9% | 12% | -5%
CCCN(CC(=O)Nc1ccccc1OC)C(=O)c1ccc(S(=O)(=O)NCc2ccco2)cc1
    -22% | 6% | -3%
CCCCn1c(N)c(N(CCOC)C(=O)COC(=O)CCOc2ccc(C)cc2)c(=O)[nH]c1=O
    -15% | 12% | -5%

Compound activity (PubChem BioAssay)
